# PINK1 expr mod: changes PINK1 expression; PINK1 immunofluorescence, high-content cytometry, 24 h; Potency, µM (series often up to 76.6 µM), inactives show at the highest dose activation (PINK1 increase), usual class: activators; 0.2% of 410,000 active; AID 624263; active = well fitted activation curve with a large enough effect; inconclusive = small, poorly fitted or top-dose-only effect; inactive = flat fitted curve, though single readings scatter; cell line not stated here;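 also: potency is read from the fitted curve at half-maximal effect; % of control where 0% means no effect; nearly all actives have a fitted effect of over 65% in size; a mitochondrial uncoupler was the plate control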
#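 Cells are seeded, rested 12 hours, then given compound at five concentrations or DMSO for 24 hours. After fixation, blocking and antibody staining, PINK1 amount and mitochondrial localization are scored; CCCP serves as control.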
# TRPML1 inh: human mucolipin-1 channel inhibition. Q9GZU1. TRPML1-inducible cells, Ca2+ dye fluorescence, FDSS; stronger effect = lower value; inhibition of EC80 agonist-evoked calcium signal. activity change, negative = inhibition, % (test concentration not listed). 0.02% of 390,000 active; in the data active means activity change below about -50%; inconclusive means about -30% to -50%; inactive means above about -30%;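 also: stimulus is agonist 54-4 at its EC80 concentration; % is scaled to controls: 0 for no effect and ±100 for the full control effect; compound concentration not given in the record; the text of the record puts the active cut at -80%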
# Target sequence (Q9GZU1 whole entry, looked up): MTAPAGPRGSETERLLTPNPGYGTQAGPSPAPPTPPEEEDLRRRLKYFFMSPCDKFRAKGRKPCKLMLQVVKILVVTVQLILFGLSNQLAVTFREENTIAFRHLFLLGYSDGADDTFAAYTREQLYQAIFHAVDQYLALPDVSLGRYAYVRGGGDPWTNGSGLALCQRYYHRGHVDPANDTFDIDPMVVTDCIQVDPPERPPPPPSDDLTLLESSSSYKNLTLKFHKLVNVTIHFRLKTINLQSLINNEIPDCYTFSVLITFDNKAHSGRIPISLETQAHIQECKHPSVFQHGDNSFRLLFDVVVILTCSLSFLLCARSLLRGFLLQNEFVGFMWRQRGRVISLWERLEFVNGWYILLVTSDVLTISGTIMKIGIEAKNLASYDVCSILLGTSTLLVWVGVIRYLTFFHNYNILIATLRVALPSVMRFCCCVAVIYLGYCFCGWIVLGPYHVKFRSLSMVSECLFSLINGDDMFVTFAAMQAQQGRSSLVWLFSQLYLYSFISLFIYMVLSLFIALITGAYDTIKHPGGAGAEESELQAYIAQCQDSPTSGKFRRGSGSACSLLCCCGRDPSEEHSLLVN
#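 Tet-induced TRPML1-DL cells loaded with Ca8 no-wash calcium dye were read kinetically on FDSS. Compound addition was followed by EC80 agonist 54-4 (4 uM final); inhibition was read over 110 s.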
# TRPV1 potentiator: potentiators of human vanilloid receptor 1 (TRPV1); TRPV1-expressing cells, Fluo-8 calcium influx, capsaicin EC20 potentiation; host cell line not named in the record; control for the full effect not named in the record; potentiation, % at 8.33 µM; 0.02% of 320,000 active; AID 540277; active means potentiation above 80%; inconclusive means 30% to 80%; inactive means below 30%; also: 0% is about no effect
#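 Fluo-8 calcium influx in TRPV1-expressing cells, kinetic read (ex 480/em 520 nm). Compound added and read 3 min for agonist activity, followed by capsaicin at EC20 final and 2 min further read for enhancement.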
# Sfp inh: inhibitors of Bacillus subtilis Sfp phosphopantetheinyl transferase; Biochemical Sfp PPTase activity, qHTS; Potency, µM, for inactives: max response, negative = inhibition, most hits filed as inhibitors; 3.5% of 310,000 active; active = well fitted inhibition curve with a large enough effect; inconclusive = small, poorly fitted or top-dose-only effect, or another doubt; inactive = no such curve, though single readings can be large or run the other way;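 also: the enzyme is Sfp with the accession as filed and its product quenches rhodamine fluorescence; potency is read from the fitted curve at half-maximal effect; 0% = enzyme reaction without inhibitor and -100% = no enzyme wells; top concentration of the series not given in the record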
#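 With Hepes-Na pH 7.6 buffer containing 10 mM MgCl2, Sfp (15 nM) modified BHQ-2-YbbR (12.5 uM) using rhodamine-CoA (5 uM). Two reads 30 minutes apart at 525/598 nm yielded each well's rate.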
# TRPML1 ag: human mucolipin-1 channel agonism | TRPML1-expressing cells, Ca2+ dye fluorescence, FDSS; host cell line not named in the record; reference of the full effect not given here | activation, % (no concentration beside the values) | 0.12% of 410,000 active | AID 624414; in the data active = activation above about 50%; inconclusive = about 30% to 50%; inactive = below about 30%; also: 0% is about no effect; the text of the record puts the active cut at 80%
#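 Kinetic FDSS Ca2+ read in Tet-induced TRPML1-DL cells (ABD Ca8 dye plus quencher, 45-90 min RT loading): baseline, then compound, then 110 s agonist window; EC80 agonist 54-4 at 4uM final added afterwards for a 110 s antagonist window.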
# ClpP mod: qHTS Assay for Activators of ClpP. 1.9% of 340,000 active. ATP-dependent Clp protease proteolytic subunit (Bacillus subtilis (strain 168)), P80244. purified B. subtilis ClpP, FRET peptide cleavage, 20 min. AID 651965, 2013. Potency, µM (highest dose often 57.5 µM), for the others: at the top dose activity change, negative = active; active = well fitted falling curve with a large enough effect; inconclusive = small, poorly fitted or top-dose-only effect; inactive = no such curve, though single readings can be large or run the other way; also: potency is read from the fitted curve at half-maximal effect; the source files actives as falling curves though it sought activators and does not explain the sign; nearly all actives have a fitted effect of over 65% in size; many hits overshoot -100%
# Target sequence (P80244 whole entry, looked up): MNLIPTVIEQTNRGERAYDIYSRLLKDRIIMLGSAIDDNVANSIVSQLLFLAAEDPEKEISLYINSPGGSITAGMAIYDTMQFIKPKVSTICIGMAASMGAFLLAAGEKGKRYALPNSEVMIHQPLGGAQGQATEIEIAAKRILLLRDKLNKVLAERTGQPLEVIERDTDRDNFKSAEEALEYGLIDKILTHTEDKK
#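 FRET quenching reversal measured ClpP activation: 10 microg/mL B. subtilis ClpP at pH 8 with the FRET-FV decapeptide, read at 430 nm after 320 nm excitation. The 20-min minus 0-min signal was scaled between DMSO/no-enzyme wells and ADEP (5.8 microM final).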
# Menin MLL FP FL: inhibitors of human menin-MLL interaction, wild-type MLL peptide. Fluorescence polarization, fluorescein-MLL peptide displacement from menin. FP activity change, % at 61.4 µM. 290,000 tested, under 10 active. AID 1766; inconclusive = falling polarisation curve, or a change in total fluorescence; inactive = total fluorescence flat and polarisation flat or rising; no compound was filed as active; the % refers to the polarisation; negative = inhibition;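 also: % of control where 0% means no effect; inhibitors lower the polarisation; unlabelled MLL peptide was the positive control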
# Numbers without * were called inactive; ? = inconclusive; . = no result given; & = joins results of further samples; [ ] = remark or other dose.
molecule	PINK1 expr mod	TRPML1 inh	TRPV1 potentiator	Sfp inh	TRPML1 ag	ClpP mod	Menin MLL FP FL
CC(=O)c1ccc(S(=O)(=O)N2CCN(S(=O)(=O)c3ccccc3C(F)(F)F)CC2)cc1	0.8%	18	2	5%	-0.2	1.1%	0.4
CCCCC(=O)Nc1cccc(NC(=S)NC(=O)C(C)C)c1	-0.6%	-10	-14	?	-0.4	1.6%	3.8
O=C(CSc1ncnc2nc[nH]c12)N1CCN(c2ccc(Cl)cc2)CC1	-25%[38.3 µM]	-5	1	-1%	0.1	-3.8%	1.1
CCCn1c(CNC(=O)Cc2ccccc2)nc2ccccc21	0.7%	17	-15	8%	0.3	0.3%	3.3
NNc1nc(-c2ccccc2Cl)nc2ccccc12	5.6%	-17	1	?	-0.4	-1.0%	0.2
CCOc1cc(CNC(=O)CCCn2c(=O)c3cccn3c3cccnc32)cc(OCC)c1OCC	1.0%&2.2%	3&-18	-6	5%	0.8&0.7	-19%&-21%	.
COc1ccc(-c2nnc(Nc3ccc(CC(N)=O)cc3)c3ccccc23)cc1	-3.1%	16	-6	-10%	1.7	-4.4%	8.2
Cc1ccccc1Cc1c(C)nc2nc(SCC(=O)NCc3ccco3)nn2c1C	4.6%	-6	12	-25%	-0.8	-0.1%	4.8
CCCC(=O)Nc1ccc(C(=O)NNC(=O)COc2ccc(Br)c(C)c2)cc1	0.8%	-8	-21	3%	0.5	-8.8%	-0.3
CC1=NN(C(=O)c2ccccc2C)C(O)(c2ccc(Cl)cc2)C1 (configuration not stated)	0.6%	-7	-1	22%	-0.3	.	6.6
Cc1ccc(NC(=O)CN2C(=O)COc3ccc(S(=O)(=O)N4CCCCCC4)cc32)c(C)c1	1.2%	-1	.	.	3.0	0.5%	.
CCN(CC)C(=O)Cn1ncc2c([nH]c3ccccc32)c1=O	1.0%	24	.	.	2.6	5.0%	.
CC(C1CC1)N(Cc1ccccc1)C(=S)Nc1cccc(C(F)(F)F)c1 (configuration not stated)	?	0	-32	-6%	-0.3	1.5%	6.7
COc1ccc(Oc2ccccc2/C=N/O)cc1	-1.3%	-13	-8	-1%	2.3	-1.0%	2.0
O=C(CNC(=O)c1cccc(F)c1)N/N=C/C=C/c1ccccc1	1.6%	0	-3	16%	0.9	1.4%	0.5
Cc1cccc(OCC(=O)NCCCNC(=O)c2ccc(C)nc2)c1	3.0%	-1	-2	19%	0.4	.	0.0
Nc1ccc(C(=O)Nc2ccco2)cc1	2.6%	-8	16	-2%	2.2	-2.9%	3.3
O=C(c1cccc(F)c1)N1CCC2(CCCN(Cc3nccs3)C2)CC1	0.1%	.	.	19%	.	.	-0.7
Cc1ccc(-c2cc(-c3ccc(F)cc3)nc(N)c2C#N)o1	2.9%	-1	5	8.9µM*	2.9	?	9.7
CCCCOC(=O)NC1(C)CCS(=O)(=O)C1 (configuration not stated)	-1.7%	-25	-6	-4%	0.0	-2.7%	4.8
COc1ccc(C(=O)CSc2nnc(-c3ccccn3)n2Cc2ccco2)cc1	-0.1%	36	12	?	0.5	0.1%	3.7
O=C(NCc1cccnc1)c1cc(C2CCCCN2S(=O)(=O)c2cccc3cccnc23)on1 (configuration not stated)	1.9%	84	.	.	2.9	-0.5%	.
Nc1nc(NCC(=O)O)nc(NC2CCCCC2)c1[N+](=O)[O-]	-0.7%	-2	-1	-1%	0.4	-0.1%	-0.7
CCc1nc(CN2CCN(c3ccc(C(F)(F)F)cn3)CC2)c(C)[nH]1	0.4%	0	-2	8%	-0.3	-4.5%	-5.7
CCOC(=O)C1C(c2ccccc2Cl)NC(=O)N(C)C1(O)C(F)(F)F (configuration not stated)	-2.1%[38.3 µM]	2	5	4%	-0.4	-2.5%	2.0
O=C(NCc1ccc2c(c1)OCO2)C1CCCN1C(=O)Nc1ccc(Cl)cc1 (configuration not stated)	3.0%	-15	-8	-3%	0.3	.	-8.0
O=C(CSc1nc2ccccc2s1)Nc1ccc(Cl)c(C(=O)O)c1	0.9%	5	8	22µM*	2.2	.	-0.4
CC(=O)Oc1ccc(Cn2c(C)c(C(=O)NCc3cccc(C(F)(F)F)c3)sc2=O)cc1	-0.9%	.	.	.	0.5	-0.6%	.
COc1ccc(S(=O)(=O)Nc2cccc(F)c2C)cc1C(=O)N1CCOCC1	-1.6%	-14	3	15%	0.0	.	-0.5
Cc1ccc(N(C(=O)c2ccco2)C(C(=O)NC2CCCC2)c2ccco2)c(C)c1 (configuration not stated)	3.5%	9	-13	-4%	1.3	.	0.0
CN(CC(=O)Nc1ccccc1Br)C(=O)c1cccc(S(=O)(=O)NCc2ccccc2)c1	1.6%	-6	-4	.	-1.0	-0.8%	.
CCc1ccc(OC(C)C(=O)Nc2c(C(=O)c3ccccc3)oc3ccccc23)cc1 (configuration not stated)	2.7%	-1	.	.	0.7	4.0%	.
O=C(Nc1ccc(F)cc1Cl)c1ccc2c(=O)n3c(nc2c1)CCC3	-2.1%	-6	-6	.	1.0	-7.5%	.
Cc1cccc(C)c1NC(=O)COC(=O)c1ccc(N2CCCC2)c([N+](=O)[O-])c1	15%	9	2	?	0.5	-1.0%	1.1
Cn1c(CCN2CCOCC2)nc2cc(NC(=O)COc3ccc([N+](=O)[O-])cc3)ccc21	0.5%	-3	0	9%	-0.1	-0.7%	.
C/C(Cn1nnc2ccccc21)=N\NC(=O)c1ccc(Br)cc1	1.0%	-2	-6	0%	1.1	.	0.0
Cc1cccc(N(CC(=O)NCCSc2ccc(Cl)cc2)S(C)(=O)=O)c1C	0.6%	-3	.	.	-1.1	0.0%	.
CCN(CC)CCCNc1ncnc2scc(-c3ccc(F)cc3)c12	0.5%	1	-1	5%	-0.5	1.1%	-1.1
C=CCOC(=O)C1=C(C)OC(N)=C(C#N)C1c1ccoc1 (configuration not stated)	-1.7%[38.3 µM]	-9	-20	-30%	1.4	1.4%	?
CC(C)[C@H](NC(=O)C1CCCC1)c1nc2ccccc2[nH]1	-1.8%	-9	8	20%	-0.2	.	-3.6
CC(C)C[C@H](NC(=O)c1[nH]cnc1C(=O)N[C@@H](C)c1ccccc1)C(=O)OCc1ccccc1	13%	-9	-8	29%	1.6	-1.2%	2.0
CC1C(=O)N2CCCc3cc(NC(=O)C(=O)NCCc4ccccc4)cc1c32 (configuration not stated)	4.4%	-2	-5	.	2.1	-1.4%	.
COc1ccc(C2c3cc(OC)c(OC)cc3CC(=O)N2c2cccc(C#N)c2)cc1 (configuration not stated)	-0.4%	-1	.	.	-0.8	0.1%	.
Cc1ccc(CCNC(=O)C2CCN(C(=O)N(C)C)CC2)cc1	4.0%[38.3 µM]	5	13	4%	-0.8	0.8%	0.4
COCc1cc(N2CCOCC2)nc(-c2ccccc2)n1	0.4%	5	-12	12%	2.6	.	-1.3
O=C(N/N=C/c1ccco1)c1cc(-c2ccc(Cl)cc2)n[nH]1	1.9%	-4	2	10%	0.3	.	4.0
CCN1CCN(CCCOc2ccccc2-c2ccccc2)CC1	-1.8%	2	-17	?	0.0	1.7%	0.3
CC(=O)N/C(=C/c1ccc(OS(=O)(=O)c2ccc(C)cc2)cc1)C(=O)Nc1ccc(C(=O)O)cc1	2.5%	-2	2	11%	0.8	.	-1.1
CC(=O)N1CCc2cc(C(=O)CN3CCC(C)CC3)ccc21	1.3%	4	.	-11%	-0.3	-9.9%	5.3
COc1ccc(CN=CC2=C(O)CNC2=O)cc1OC	-0.1%	4	1	2%	0.8	-3.5%	0.5

# (continued)
molecule	PINK1 expr mod	TRPML1 inh	TRPV1 potentiator	Sfp inh	TRPML1 ag	ClpP mod	Menin MLL FP FL
O=C(CSCc1ccc(F)cc1)NCc1ccc(F)cc1	2.3%&0.5%	-11&-5	1	22%	-0.2&0.1	-0.6%&-0.6%	1.5
CC1=C(C(=O)OC(C)C)C(c2ccc(F)cc2)NC(=O)N1 (configuration not stated)	-7.5%[38.3 µM]	-7	4	20%	-0.3	-3.9%	2.2
CCOC(=O)/C(C#N)=C\c1c(OCC)n(CC)c2ccccc12	1.3%	-2	-11	-14%	0.5	-0.6%	4.1
O=C(COc1ccc(Cl)cc1)N1CCN(c2cccc(C(F)(F)F)c2)CC1	16%	7	-14	5%	1.0	1.3%	1.3
O=C(c1ccc2c(=O)n(Cc3ccc4c(c3)OCO4)c(=O)[nH]c2c1)N1CCN(c2ccccc2)CC1	5.5%	5	28	11%	0.4	-5.3%	.
CCOc1ccc(OCC)c(-c2c(=O)n(OCc3ccc(C(C)(C)C)cc3)c3ccccc3[n+]2[O-])c1	7.1%[38.3 µM]	0	-1	9%	0.4	0.6%	0.5
Cc1cc(C)c2oc(-c3cc(NC(=O)Cc4ccccc4)ccc3Cl)nc2c1	7.3%	-13	.	.	1.6	4.4%	.
c1ccc(OCCCc2nc(-c3ccccn3)no2)cc1	-0.5%	-13	-4	3%	0.4	-1.7%	-0.2
CCN(C(=O)c1cccc(Br)c1)c1ccccc1	4.0%	9	-11	5%	4.6	.	0.0
CCc1ccc(O)c(N=Cc2cccc(C)c2O)c1	-2.3%[38.3 µM]	2	9	-20%	0.4	0.0%	5.6
COc1ccc(C2=NC(C)(C)Cc3cc(OC)c(OC)cc32)cc1OC	0.1%	19	4	-1%	1.0	0.3%	3.2
O=C(NCCc1ccc(C(F)(F)F)cc1)C1CCC(=O)N(CCCN2CCCC2=O)C1 (configuration not stated)	-0.3%	-6	12	10%	0.3	-2.1%	-8.4
Cc1ccccc1CC1(CO)CCCN(C(=O)c2cccc(Cl)c2)C1 (configuration not stated)	1.0%	9	7	11%	0.3	0.1%	-2.4

# An excerpt from above in order of formula weight, lowest first.
molecule	PINK1 expr mod	TRPML1 inh	TRPV1 potentiator	Sfp inh	TRPML1 ag	ClpP mod	Menin MLL FP FL
COc1ccc(C2=NC(C)(C)Cc3cc(OC)c(OC)cc32)cc1OC	0.1%	19	4	-1%	1.0	0.3%	3.2
Cc1ccccc1CC1(CO)CCCN(C(=O)c2cccc(Cl)c2)C1 (configuration not stated)	1.0%	9	7	11%	0.3	0.1%	-2.4
O=C(c1ccc2c(=O)n(Cc3ccc4c(c3)OCO4)c(=O)[nH]c2c1)N1CCN(c2ccccc2)CC1	5.5%	5	28	11%	0.4	-5.3%	.

# Screening results: PubChem, National Center for Advancing Translational Sciences (NCATS)
